From PubChem BioAssay
TRPML1 ag: activates the human TRPML1 channel. Q9GZU1. TRPML1-expressing cells, Ca2+ dye fluorescence, FDSS; host cell line not named in the record; reference of the full effect not given here. activation, % (concentration not given with the values). 410,000 compounds, 0.12% hits. AID 624414; in the data active = activation above about 50%; inconclusive = about 30% to 50%; inactive = below about 30%; further: 0% is about no effect; the text of the record puts the active cut at 80%
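Kinetic FDSS Ca2+ read in Tet-induced TRPML1-DL cells (ABD Ca8 dye plus quencher, 45-90 min RT loading): baseline, then compound, then 110 s agonist window; EC80 agonist 54-4 at 4uM final added afterwards for a 110 s antagonist window.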
D2 ag: agonists of human D2 dopamine receptor (beta-arrestin). P14416. DiscoveRx PathHunter D2 beta-arrestin, luminescence, 90 min; 100% = 57 uM dopamine signal. activation, % (concentration not given with the values). 360,000 compounds, 0.084% hits. AID 624465; in the data active = activation above about 40%; inconclusive = about 15% to 40%; inactive = below about 15%; further: the text of the record calls up to 30% inactive
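Agonist mode: compounds alone added to overnight-plated D2 PathHunter cells for 90 min at 37 C, with 57 uM final dopamine (EC100) defining full response. Beta-arrestin recruitment detected by chemiluminescent reagent, read after 1 h at ambient temperature.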
PINK1 expr mod: modulators of PINK1 expression | 410,000 compounds, 0.2% hits | Potency, µM (titrated, usually from 76.6 µM), inactives show at the highest dose activation (PINK1 increase), most hits filed as activators | PINK1 immunofluorescence, high-content cytometry, 24 h; active = well fitted activation curve with a large enough effect; inconclusive = small, poorly fitted or top-dose-only effect; inactive = flat fitted curve, though single readings scatter; cell line not stated here;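 further: potency means the concentration at half of the fitted maximal effect; % of control where 0% means no effect; nearly all actives have a fitted effect of over 65% in size; a mitochondrial uncoupler was the plate control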
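Measures PINK1 amount and localization on or inside mitochondria by immunofluorescence. Stable cells get compounds at 5 concentrations for 24 hours before fixation and staining; CCCP controls included.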
D2 potentiator: positive allosteric modulators of human D2 dopamine receptor; P14416; DiscoveRx D2 beta-arrestin cells, luminescence, 90 min; 100% = 57 uM dopamine signal; potentiation, % (test concentration not listed); 360,000 compounds, 0.23% hits; active = potentiation of 50% or more; inconclusive = 30% to 50%; inactive = 30% or less;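 further: compound concentration not given in the record; tested on top of an EC20 dose of dopamine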
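PathHunter beta-arrestin assay in DiscoveRx D2 cells. Compounds were added with an EC20 of dopamine (50 nM final) for 90 min at 37 deg C. Luminescence was read 1 h after detection reagent, with 57 uM dopamine as the EC100 control.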
Six1-Eya2 inh: Six1/Eya2 interaction inhibition; activity change, % (no concentration beside the values); AID 651725; AlphaScreen GST-Six1/His-Eya2 binding, biochemical; hits give low values; control for the full effect not named in the record; 360,000 compounds, 0.56% hits; in the data active = activity change below about -65%; inconclusive = about -30% to -65%; inactive = above about -30%; further: on the % scale 0 is the no-effect control and ±100 the full control effect
Target sequence (O00167 whole entry, looked up): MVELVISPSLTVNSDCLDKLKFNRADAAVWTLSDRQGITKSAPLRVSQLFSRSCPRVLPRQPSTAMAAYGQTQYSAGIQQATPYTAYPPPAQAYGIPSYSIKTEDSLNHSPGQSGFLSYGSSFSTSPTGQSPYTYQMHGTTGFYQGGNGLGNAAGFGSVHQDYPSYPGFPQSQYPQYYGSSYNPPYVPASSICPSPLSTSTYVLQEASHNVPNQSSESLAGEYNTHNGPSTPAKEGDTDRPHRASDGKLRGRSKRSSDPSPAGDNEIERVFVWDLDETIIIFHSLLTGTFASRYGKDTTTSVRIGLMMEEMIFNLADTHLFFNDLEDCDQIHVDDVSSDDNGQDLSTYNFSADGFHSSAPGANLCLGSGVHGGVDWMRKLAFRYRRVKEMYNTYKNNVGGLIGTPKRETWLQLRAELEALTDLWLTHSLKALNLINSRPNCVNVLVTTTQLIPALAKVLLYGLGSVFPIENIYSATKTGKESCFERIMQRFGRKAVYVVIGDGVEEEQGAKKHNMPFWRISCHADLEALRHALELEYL
Target sequence (Q15475 whole entry, looked up): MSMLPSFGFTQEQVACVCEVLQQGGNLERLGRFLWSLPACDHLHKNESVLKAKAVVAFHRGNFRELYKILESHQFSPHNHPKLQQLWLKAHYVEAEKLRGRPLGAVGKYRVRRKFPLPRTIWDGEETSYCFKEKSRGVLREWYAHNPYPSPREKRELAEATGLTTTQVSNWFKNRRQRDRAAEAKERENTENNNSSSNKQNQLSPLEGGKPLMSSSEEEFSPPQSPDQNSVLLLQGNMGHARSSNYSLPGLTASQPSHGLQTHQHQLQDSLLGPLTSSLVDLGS
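GST-Six1 + His-Eya2 (5X stock: 250/500 nM); Tris pH 8.0, 300 mM NaCl, 0.05% BSA, 0.02% Tween 20; GSH donor/Ni acceptor beads; 1 h 37 °C dark; AlphaScreen readout.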
TRPML1 blocker: blocks the human TRPML1 channel. Q9GZU1. TRPML1-inducible cells, Ca2+ dye fluorescence, FDSS; hits give low values; inhibition of EC80 agonist-evoked calcium signal. activity change, negative = inhibition, % (no concentration beside the values). 390,000 compounds, 0.02% hits. AID 624415; in the data active means activity change below about -50%; inconclusive means about -30% to -50%; inactive means above about -30%;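 further: stimulus is agonist 54-4 at its EC80 concentration; on the % scale 0 is the no-effect control and ±100 the full control effect; compound concentration not given in the record; the text of the record puts the active cut at -80%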
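Calcium fluorescence in TRPML1-DL cells induced overnight with Tet: a 110 s read after compound pin addition, then a 110 s antagonist read after challenge with 54-4 at 4 uM final (EC80).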
* marks the source's active call; other numbers are inactive results; ? = inconclusive; / = not tested or not shown; & = joins results of further samples; [ ] = dose if it differs, or a comment.

Each structure is followed by: D2 ag	TRPML1 blocker	Six1-Eya2 inh	PINK1 expr mod	D2 potentiator	TRPML1 ag
O=C(CCc1nc(-c2ccccc2)no1)NCc1cccnc1
 : -0.8	6	0	-1.2%[38.3 µM]	18	-0.2
Cc1ccc(C)c(S(=O)(=O)N2CC(=O)N(CCc3ccccc3)C(=O)C2)c1
 : -4.4	3	5	-2.7%	-19	0.5
COc1cc(C2C3C(=O)N(Cc4ccccc4)C(=O)C3ON2c2ccccc2)cc(OC)c1O (stereo not given)
 : 0.0	-26	-14	3.1%	13	-0.2
O=C(CCCCCCC(=O)NCc1ccccc1)NCc1ccccc1
 : -6.2	-15	-4	2.1%	-22	0.4
C=CCSc1nc(C)c(CC(=O)OCC(C)C)c(=O)[nH]1
 : -0.7	-6	-4	-0.1%	1	-1.5
COc1ccc(N(CC(=O)NCc2ccncc2)S(=O)(=O)c2ccc(C)c([N+](=O)[O-])c2)cc1
 : -0.5	8	-21	3.0%	5	0.2
S=c1nc2ccccc2c2nc(-c3ccccc3)[nH]n12
 : -1.3	22	-25	2.5%	-19	1.1
O=C(Nc1ccc(N2CCOCC2)c([N+](=O)[O-])c1)c1ccco1
 : -3.6	15	-2	2.3%	-3	0.2
COc1ccccc1P(=O)(c1ccccc1)c1ccccc1
 : 10.0	14	-2	1.3%	0	-1.0
Cc1ccc(NS(=O)(=O)c2cccc(C(=O)NCc3ccccn3)c2)cc1
 : 3.1	4	-5	2.8%	5	-0.4
O=C(CN(C(=O)c1csnn1)c1cccc2ccccc12)NCc1ccccc1
 : 0.9	-1	3	-0.8%	5	-0.6
CCC(=O)NC(NC(=S)Nc1ccc(S(N)(=O)=O)cc1)C(Cl)(Cl)Cl (stereo not given)
 : 1.1	37	6	0.2%	4	0.1
NS(=O)(=O)c1ccc2c(c1)C(=NO)c1cc(S(N)(=O)=O)ccc1-2
 : 7.6	-4	-10	0.0%	-3	-0.3
COc1cc(C2C(C(=O)OCCC#N)=C(C)NC3=C2S(=O)(=O)c2ccccc23)cc(OC)c1OC (stereo not given)
 : 0.3	-5	4	/	1	0.5
Cc1ccc(Cn2c(=O)n(Cc3ccccc3)c(=O)c3c(C)c(C)sc32)cc1
 : /	14	/	1.3%	/	3.1
CCOC(=O)N1CCN(CC(=O)c2ccc(O)cc2O)CC1
 : 0.2	-4	3	0.1%	-7	-0.5
O=C(NNC(=S)NCc1ccc(Cl)cc1)c1cccnc1
 : -0.7	-13	-1	0.4%	-13	1.2
COc1cccc(NC(=O)CSc2nc(C)c(Cc3ccccc3)c(=O)[nH]2)c1
 : /	24	/	-0.4%	/	1.2
CCn1c(SCC(=O)Nc2ccccc2C(=O)OC)nc2ccsc2c1=O
 : /	31	/	-0.5%	/	2.8
Cc1cccc(C(=O)N[C@H](C(=O)NCCc2ccc(Cl)cc2)C(C)C)c1
 : -1.9	-14	5	6.9%	-2	3.1
N=c1c2c(n(Cc3ccccc3)c3c1CCC3)CCC2
 : -4.1	-4	3	0.0%	-17	0.3
CC1(C)CC(=O)C(CC2CCCCC2=O)C(=O)C1 (stereo not given)
 : -4.1	5	-10	2.7%	-9	-0.4
COc1cccc(NC(=O)CN2CCC(NC(=O)c3ccccc3C)CC2)c1
 : -0.8	8	-25	2.3%	-29	-0.5
CCOC(=O)/C(C#N)=C/c1ccc(OCC(=O)Nc2cc(C)ccc2C)c(OC)c1
 : -2.5	16	6	3.1%	5	3.4
Cc1sc(NC(=O)C2CCCO2)c(C#N)c1C (stereo not given)
 : -3.6	-1	-13	1.9%[38.3 µM]	-2	-0.5
Cc1csc(=O)n1CC(=O)OCC(=O)NCc1ccc(Cl)cc1Cl
 : 0.1	-7	3	-1.9%	-5	-0.8
O=C(COc1ccccc1Cl)NC1CC1
 : -2.3	21	3	-0.6%	-24	0.5
CCOc1ccc(-c2nonc2NC(=O)c2oc3ccc(Br)cc3c2C)cc1
 : /	71	/	?	/	2.7
CN(C)CCOc1ncnc2c1oc1ccccc12
 : -1.2	0	-2	5.7%[38.3 µM]	-9	-0.4
COc1ccc(NC(=O)c2sc3nc4c(cc3c2N)CN(C(C)C)CC4)c(OC)c1
 : /	17	/	0.0%	/	2.4

Retrieved by structure from above, 2 records:
Each structure is followed by: D2 ag	TRPML1 blocker	Six1-Eya2 inh	PINK1 expr mod	D2 potentiator	TRPML1 ag
Cc1sc(NC(=O)C2CCCO2)c(C#N)c1C (stereo not given)
 : -3.6	-1	-13	1.9%[38.3 µM]	-2	-0.5
O=C(COc1ccccc1Cl)NC1CC1
 : -2.3	21	3	-0.6%	-24	0.5

Entries from the list above that have a furan ring, fused or not (3):
Each structure is followed by: D2 ag	TRPML1 blocker	Six1-Eya2 inh	PINK1 expr mod	D2 potentiator	TRPML1 ag
O=C(Nc1ccc(N2CCOCC2)c([N+](=O)[O-])c1)c1ccco1
 : -3.6	15	-2	2.3%	-3	0.2
CCOc1ccc(-c2nonc2NC(=O)c2oc3ccc(Br)cc3c2C)cc1
 : /	71	/	?	/	2.7
CN(C)CCOc1ncnc2c1oc1ccccc12
 : -1.2	0	-2	5.7%[38.3 µM]	-9	-0.4

Continued:
Each structure is followed by: D2 ag	TRPML1 blocker	Six1-Eya2 inh	PINK1 expr mod	D2 potentiator	TRPML1 ag
Cn1cccc1Cc1nnc(SCC(=O)Nc2nccs2)n1C
 : -0.2	-11	-4	0.8%	0	0.5
Cc1coc2cc3oc(=O)c(CC(=O)NCCc4ccccc4F)c(C)c3cc12
 : /	3	/	1.3%	/	-0.9
Cc1nn(C(C)C(=O)N/N=C/c2ccc(N(C)C)cc2)c(C)c1[N+](=O)[O-] (stereo not given)
 : 1.0	43	-10	-1.9%	-10	0.7
CCN1CCN(C(=O)Cn2ncc3ccsc3c2=O)CC1
 : 1.6	6	-2	-0.3%	-3	-0.2
COCCCn1cnc2c(c1=O)c1nc3ccccc3nc1n2-c1ccccc1
 : 2.8	15	10	0.7%	-6	0.3
COc1ccc(C(=O)Nc2ccc3nc(N4CCN(C)CC4)cc(C)c3c2)c(OC)c1
 : -3.8	2	1	0.8%	-13	-1.5
O=C(O)c1cccc2c1Cc1cc(Cl)ccc1-2
 : -2.3	3	6	-3.0%	2	-0.7
CCCS(=O)(=O)N1CCCC(C(=O)NCCN(Cc2ccccc2)C(C)C)C1 (stereo not given)
 : -2.7	41	4	-1.0%	-20	-0.5
COc1cc(C(C)=O)ccc1Oc1ccc(S(=O)(=O)N2CCOCC2)cn1
 : 2.1	-21	0	-1.6%	16	0.0
COC(=O)c1c(Cc2ccccc2Cl)c[nH]c1C
 : 2.0	7	-8	8.3%	10	-0.5
CCOC(=O)c1cccc(NC(=O)C(C)n2c(C)c3cnn(-c4ccccc4)c(=O)c3c2C)c1 (stereo not given)
 : /	-5	/	0.5%	/	0.7
C[C@H](CO)N1C[C@H](C)[C@@H](CN(C)Cc2ccc(C(=O)O)cc2)Oc2c(NC(=O)C3CC3)cccc2C1=O
 : 0.4	-9	3	-0.7%	/	-0.6
COc1ccc(N2CCN(c3nc(NC(C)(C)C)nc(N4CCCCC4)n3)CC2)cc1
 : -2.2	-1	?	9.8%	6	4.2
O=[N+]([O-])c1ccc2c(c1)S(=O)c1ccccc1-2 (stereo not given)
 : 15	12	6	-3.0%	11	-0.2
Cc1nc(N2CCCC2)ncc1C(=O)Nc1ccccc1
 : /	16	/	0.2%	/	2.5
CCNC(=S)NNc1ccccc1
 : 1.9	15	8	1.3%	-8	0.3
CC(O)(CS(=O)(=O)c1ccc(Br)cc1)c1ccccc1 (stereo not given)
 : 6.9	3	6	-0.8%	4	3.7
CCCCn1c(N)c(N(CCOC)C(=O)c2ccc(-n3c(C)ccc3C)cc2)c(=O)[nH]c1=O
 : 1.0	5	-2	3.8%	4	-1.0
Cc1csc2nc(SCC(=O)N3CCN(c4ccccc4)CC3)[nH]c(=O)c12
 : -0.9	-4	-8	1.0%	-10	1.9
CCN(CC)CCNC(=O)Cn1nc(Cc2ccncc2)c2ccccc2c1=O
 : -0.1	/	0	1.1%	4	/
CC1CCN(S(=O)(=O)c2cnc(Cl)c(Br)c2)CC1
 : -1.6	-1	1	-0.4%	12	0.9
CSc1ccc(C(=O)N2CCC(n3nccc3NC(=O)C3CC3)CC2)cc1
 : 2.6	-3	-5	-1.4%	-3	-0.7
Cc1ccc(S(=O)(=O)N(C)CC(O)Cn2c3ccccc3c3ccccc32)cc1 (stereo not given)
 : -0.9	37	1	-2.1%	1	2.6
COc1ccccc1CNS(=O)(=O)c1cc(-c2cc(C)no2)ccc1C
 : /	9	/	0.2%	/	3.3
CCC(CC)C(=O)Nc1ccc(C)cc1O
 : 7.4	23	5	-1.3%	-1	0.9
O=C(CSc1nnnn1C1CC1)N1CCN(c2cccc(Cl)c2)CC1
 : -3.8	-7	5	4.2%	-3	0.0
COc1cc(C(=O)NCc2nnc(SCC(=O)N3CCCC3)o2)cc(OC)c1OC
 : 0.8	-4	2	-1.3%	-11	-0.5
COc1ccc(S(=O)(=O)N2CCN(C(=O)/C=C/c3ccco3)CC2)cc1
 : -3.6	-4	-17	-3.0%	-2	0.5
CCOc1ccc2oc(C(=O)OCC(=O)NC3CCCCC3)c(C)c2c1
 : -3.0	-6	7	11%	1	0.7
Cc1ccc(S(=O)(=O)N2CCCCC2)cc1NC(=O)c1ccc(Br)o1
 : 1.4	26	0	0.3%	-4	0.6

Carrying on.
Each structure is followed by: D2 ag	TRPML1 blocker	Six1-Eya2 inh	PINK1 expr mod	D2 potentiator	TRPML1 ag
NS(=O)(=O)c1ccc(NC(=O)c2ccc3c(c2)CCN3S(=O)(=O)c2ccccc2)cc1
 : -1.2	-5&-17	-2	18%&11%	-3	0.8&2.5
CN1CCN(C(=O)/C=C/c2cccc(Cl)c2)CC1
 : -23	41	2	-0.6%	-19	0.1
O=C(NNC(=O)c1ccccc1)C(=O)N1CCCCC1
 : -0.9	7	1	-0.5%	-6	0.0
CSC1=NC2(CCN(C(=O)NC3CCCCC3)CC2)N=C1c1ccc(C)cc1
 : /	10	/	1.2%	/	1.7
Cc1nn(-c2ccccc2)c(N2CCCC2)c1/C=C1\N=C(c2ccccc2)OC1=O
 : 1.0	2	1	0.9%	-1	1.7
O=C(CCl)NNc1nc(-c2ccccc2)c2cc(Cl)ccc2n1
 : -6.4	-15	3	0.2%	-10	1.3
CC(=O)c1c(C(C)=O)c(C)n(-c2nc(-c3ccccc3)c(C)s2)c1C
 : 0.5	21	-3	-1.3%	-29	-1.9
O=C(CCC(=O)N(CC(=O)NC1CCCCC1)c1ccc(F)cc1)Nc1nccs1
 : 0.1	-4	7	9.3%	-6	0.4
CC(C)Oc1ccc(CNC(=O)C2CCN(C(=O)N3CCOc4ccccc43)CC2)cc1
 : -1.5	13	0	0.4%	0	0.0
CCOC(=O)C1=C(C)Nc2nc(=S)[nH]n2C1c1ccc(Cl)cc1 (stereo not given)
 : 8.6	-1	-4	2.5%	-2	-0.1
COc1ccc(C)c2sc(N(CCCN(C)C)C(=O)c3ccc(S(=O)(=O)N4CCc5ccccc5C4)cc3)nc12
 : ?	-1	-12	-1.1%	-33	0.3
